PINK1 expr mod – changes PINK1 expression; PINK1 immunofluorescence, high-content cytometry, 24 h; Potency, µM (top dose mostly 76.6 µM), without a hit: at the highest dose activation (PINK1 increase), hits mostly activators; actives 0.2% (n = 410,000); AID 624263; active = well fitted activation curve with a large enough effect; inconclusive = small, poorly fitted or top-dose-only effect; inactive = flat fitted curve, though single readings scatter; cell line not stated here;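 further: potency means the concentration at half of the fitted maximal effect; % of control where 0% means no effect; nearly all actives have a fitted effect of over 65% in size; a mitochondrial uncoupler was the plate control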
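Stable cell line, 250 cells/well, 12 h attachment; compounds pinned at 5 concentrations, 24 h; CCCP control. Fixed with nuclear dye, primary antibodies 12 h at 10 degrees C, secondary plus cell stain; laser-scanning cytometer read.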
D2 agonist – human D2 receptor agonism in beta-arrestin assay. P14416. DiscoveRx PathHunter D2 beta-arrestin, luminescence, 90 min; 100% = 57 uM dopamine signal. activation, % (test concentration not listed). actives 0.084% (n = 360,000). AID 624465; in the data active = activation above about 40%; inconclusive = about 15% to 40%; inactive = below about 15%; further: compound concentration not given in the record; the text of the record calls up to 30% inactive
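Agonist mode: compounds alone added to overnight-plated D2 PathHunter cells for 90 min at 37 C, with 57 uM final dopamine (EC100) defining full response. Beta-arrestin recruitment detected by chemiluminescent reagent, read after 1 h at ambient temperature.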
Six1-Eya2 blk – blocks human Six1 binding to Eya2 | Q15475+O00167 | AlphaScreen GST-Six1/His-Eya2 binding, biochemical; stronger effect = lower value; control for the full effect not named in the record | activity change, % (concentration not given with the values) | actives 0.56% (n = 360,000) | AID 651725; in the data active = activity change below about -65%; inconclusive = about -30% to -65%; inactive = above about -30%; further: on the % scale 0 is the no-effect control and ±100 the full control effect
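Six1/Eya2 binding was read as AlphaScreen signal after compounds were pinned into GST-Six1 plus His-tagged Eya2 (5X stock 250/500 nM) in pH 8.0 Tris/NaCl/TCEP buffer, beads added, then incubated 1 h, 37 C, dark.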
CtBP-E1A blk – blocks the CtBP interaction with E1A; AlphaScreen GST-E1A/His-CtBP binding, 1536-well; stronger effect = lower value; control for the full effect not named in the record; actives 0.49% (n = 340,000); activity change, % (test concentration not listed); in the data active means activity change below about -65%; inconclusive means about -30% to -65%; inactive means above about -30%; further: on the % scale 0 is the no-effect control and ±100 the full control effect; compound concentration not given in the record
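Homogeneous bead-based format: GST-tagged E1A captured on glutathione donor beads, His-tagged CtBP on nickel acceptor beads; compounds precede bead addition by 2 h at 37 °C.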
D2 potentiator – human D2 receptor positive allosteric modulation; P14416; DiscoveRx D2 beta-arrestin cells, luminescence, 90 min; 100% = 57 uM dopamine signal; potentiation, % (no concentration beside the values); actives 0.23% (n = 360,000); active = potentiation of 50% or more; inconclusive = 30% to 50%; inactive = 30% or less;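 further: compound concentration not given in the record; tested on top of an EC20 dose of dopamine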
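PathHunter D2 cells, attached overnight at 37 deg C, received compound in DMSO plus dopamine at EC20 (50 nM final) for 90 min at 37 deg C. Beta-arrestin recruitment was read as luminescence after 1 h with detection reagent at ambient temperature.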
TRPV1 potentiator – potentiators of human vanilloid receptor 1 (TRPV1); Q8NER1; TRPV1-expressing cells, Fluo-8 calcium influx, capsaicin EC20 potentiation; host cell line not named in the record; control for the full effect not named in the record; potentiation, % at 8.33 µM; actives 0.02% (n = 320,000); AID 540277; active means potentiation above 80%; inconclusive means 30% to 80%; inactive means below 30%; further: 0% is about no effect
Target sequence (Q8NER1 whole entry, looked up): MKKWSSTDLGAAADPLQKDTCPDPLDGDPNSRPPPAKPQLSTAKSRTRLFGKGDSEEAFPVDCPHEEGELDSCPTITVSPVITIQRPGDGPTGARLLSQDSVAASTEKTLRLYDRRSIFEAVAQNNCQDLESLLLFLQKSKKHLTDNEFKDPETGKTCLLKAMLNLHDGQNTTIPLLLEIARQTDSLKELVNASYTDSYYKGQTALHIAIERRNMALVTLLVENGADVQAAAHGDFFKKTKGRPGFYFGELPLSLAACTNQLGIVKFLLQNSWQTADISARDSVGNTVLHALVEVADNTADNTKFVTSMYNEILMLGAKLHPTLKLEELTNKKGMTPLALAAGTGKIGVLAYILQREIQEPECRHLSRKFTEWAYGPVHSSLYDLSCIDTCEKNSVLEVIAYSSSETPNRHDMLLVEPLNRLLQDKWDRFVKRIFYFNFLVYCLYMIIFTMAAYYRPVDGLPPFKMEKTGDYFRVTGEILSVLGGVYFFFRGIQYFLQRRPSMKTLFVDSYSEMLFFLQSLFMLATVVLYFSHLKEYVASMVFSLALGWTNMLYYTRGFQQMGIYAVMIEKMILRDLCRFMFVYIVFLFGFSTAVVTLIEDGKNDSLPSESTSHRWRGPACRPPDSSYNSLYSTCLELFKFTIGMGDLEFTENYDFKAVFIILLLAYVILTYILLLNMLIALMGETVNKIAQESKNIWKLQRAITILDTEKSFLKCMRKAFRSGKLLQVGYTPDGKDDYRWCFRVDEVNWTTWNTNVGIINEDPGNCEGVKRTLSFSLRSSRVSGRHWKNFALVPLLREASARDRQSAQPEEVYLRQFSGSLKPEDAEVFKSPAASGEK
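Cells expressing TRPV1 were dye-loaded with Fluo-8 and read kinetically: 10 s baseline, 3 min after compound (agonist portion), then 2 min after EC20 capsaicin (allosteric enhancer portion). Calcium-bound dye fluorescence at 480/520 nm.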
Sfp PPTase inh – Sfp phosphopantetheinyl transferase inhibition. Potency, µM, without a hit: max response, negative = inhibition, hits mostly inhibitors. Biochemical Sfp PPTase activity, qHTS. Q9F4F7. AID 1490. actives 3.5% (n = 310,000); active means well fitted inhibition curve with a large enough effect; inconclusive means small, poorly fitted or top-dose-only effect, or another doubt; inactive means no such curve, though single readings can be large or run the other way;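 further: the enzyme is Sfp with the accession as filed and its product quenches rhodamine fluorescence; potency means the concentration at half of the fitted maximal effect; 0% = enzyme reaction without inhibitor and -100% = no enzyme wells; top concentration of the series not given in the record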
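Compounds were incubated with enzyme (final 15 nM) for 15 min at room temperature before substrate addition started the reaction. Fluorescence at 525 nm excitation, 598 nm emission was recorded immediately and after 30 minutes.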
* = called active by the depositor; ? = inconclusive; / = not tested or not shown; & = joins results of further samples; [ ] = remark or other dose.

SMILES	PINK1 expr mod	D2 agonist	Six1-Eya2 blk	CtBP-E1A blk	D2 potentiator	TRPV1 potentiator	Sfp PPTase inh
Nc1ccc(C(=O)N/N=C\C=C\c2cccc([N+](=O)[O-])c2)cc1	0.6%	-1.8	-12.9	-10.1	-4.4	7.4	10.2%
COc1ccc(C2NC(=S)NC(C)=C2C(=O)Nc2ccccn2)cc1 (centres undefined)	7.0%	-1.6	0.6	8.1	-1.4	3.2	22.6%
Cc1ccnc2nc(C(=O)Nc3cc(Cl)ccc3N3CCOCC3)nn12	2.6%	-1.0	-0.9	-1.1	-2.8	-26.0	11.2%
CCOC(=O)c1c(NC(=O)CSc2nnnn2-c2ccccc2OCC)sc2c1CC(C)(C)NC2(C)C	-0.8%	-4.7	-13.1	0.7	-23.5	4.1	/
O=C(CCCOc1ccc(Cl)cc1Cl)N1CCc2ccccc2C1	-2.0%[38.3 µM]	-3.7	8.6	-20.0	-12.4	?	17.8µM*
CCc1nnc(NS(=O)(=O)c2ccc(NCc3ccccc3O)cc2)s1	-1.9%	-0.5	-4.4	0.3	1.7	27.2	3.3%
CN(C)CCCOc1ccc(-c2cc3nc(NCc4cccnc4)n(C)c(=O)c3s2)cn1	-0.3%	-6.3	-12.6	-7.2	-20.0	/	/
CCc1ccc(-n2c(=S)sc3c(=O)[nH]c(SCC(=O)NC4CCCCC4)nc32)cc1	0.7%	-2.7	-1.3	-19.5	-8.1	/	/
O=C1CN(C(=O)c2ccccc2)C(c2ccc(F)cc2)c2cc(Br)ccc2N1 (centres undefined)	0.7%&-1.2%	2.5	-8.3	3.4	-7.4	-11.7	-7.1%
CCC(/C=C1\Oc2ccc(OC)cc2N1C)=C\c1sc2ccccc2[n+]1CCCS(=O)(=O)[O-]	-1.3%	2.3	-6.9	-1.6	-1.4	/	/
O=C(NC1CCCCC1)N1CCc2ccccc21	2.2%	-2.7	4.2	1.8	-7.7	7.8	13.4%
Nc1ccc(-c2sc(N)nc2-c2ccccc2)cc1	1.9%	-1.8	1.5	-9.2	-4.3	/	4.0%
C=CCOc1ccc2ccccc2c1CNn1cn[nH]c1=S	1.0%	-4.8	-5.4	4.6	-5.2	4.2	-7.0%
Cc1ccc(CN2CCN(Cc3cnc(C)[nH]3)CC2CCO)cc1 (centres undefined)	-2.6%	-3.7	-4.7	0.9	-8.1	2.7	-3.7%
COc1cc(OC)cc(C2=NC3(CCC(C)CC3)NC2=S)c1 (centres undefined)	2.1%	-0.2	-5.1	-3.1	-13.9	5.9	13.9%
O=C(CC1NCCNC1=O)Nc1ccccc1 (centres undefined)	0.7%	0.1	-24.6	-6.7	-0.2	2.5	36.1%[activator]
Cc1ccc(N(Cc2ccc(C(=O)Nc3c(C)n(C)n(-c4ccccc4)c3=O)cc2)S(C)(=O)=O)cc1C	-0.4%	2.4	1.3	4.7	-3.9	1.5	13.6%
CC(=O)OC1CCC2(C)C(CCC3C2CC(=O)C2(C)C3CC(C3CCCC3=O)C2C(C)=O)C1 (centres undefined)	-0.3%	-0.6	3.5	-6.3	-4.7	/	/
CC(NC(=O)COC(=O)[C@@H]1CCCN1S(=O)(=O)c1ccccc1F)C12CC3CC(CC(C3)C1)C2 (some centres undefined)	-1.2%	3.1	4.5	-10.1	5.7	0.6	6.7%
O=C(NCC1CCCO1)c1ccc(NS(=O)(=O)c2ccccc2)cc1 (centres undefined)	-1.0%	5.2	6.7	-3.9	-2.0	-8.0	5.3%
CN(c1ccccc1)S(=O)(=O)c1cccc(NC(=O)CSc2nncn2C)c1	0.4%	-3.9	-5.8	-10.5	-9.7	-4.3	15.3%
CCOC(=O)c1c(NC(=S)Nc2ccccc2C)sc2c1CCC2	8.3%	-3.2	-6.4	-6.4	1.1	-1.8	-14.6%
Cc1cccc(C)c1NC(=O)C1(NC(=O)C2CCC(=O)N2)CCCCC1 (centres undefined)	-0.4%	-0.3	-4.5	1.1	-0.1	3.1	18.5%
CCN(CC)c1nc2cc(OC)ccc2cc1C#N	4.1%	0.8	91.2	/	-14.3	-5.1	-5.5%
N#Cc1cccc(NC(=O)CSc2ccc3c4c(cccc24)C(=O)c2ccccc2-3)c1	2.5%	-2.1	3.1	5.5	10.9	-7.7	11.4%

Reprinted at random: 2 compounds from above
SMILES	PINK1 expr mod	D2 agonist	Six1-Eya2 blk	CtBP-E1A blk	D2 potentiator	TRPV1 potentiator	Sfp PPTase inh
O=C(NCC1CCCO1)c1ccc(NS(=O)(=O)c2ccccc2)cc1 (centres undefined)	-1.0%	5.2	6.7	-3.9	-2.0	-8.0	5.3%
COc1ccc(C2NC(=S)NC(C)=C2C(=O)Nc2ccccn2)cc1 (centres undefined)	7.0%	-1.6	0.6	8.1	-1.4	3.2	22.6%

Back to the main list; the 6 compounds before the break are reprinted first.
SMILES	PINK1 expr mod	D2 agonist	Six1-Eya2 blk	CtBP-E1A blk	D2 potentiator	TRPV1 potentiator	Sfp PPTase inh
O=C(NCC1CCCO1)c1ccc(NS(=O)(=O)c2ccccc2)cc1 (centres undefined)	-1.0%	5.2	6.7	-3.9	-2.0	-8.0	5.3%
CN(c1ccccc1)S(=O)(=O)c1cccc(NC(=O)CSc2nncn2C)c1	0.4%	-3.9	-5.8	-10.5	-9.7	-4.3	15.3%
CCOC(=O)c1c(NC(=S)Nc2ccccc2C)sc2c1CCC2	8.3%	-3.2	-6.4	-6.4	1.1	-1.8	-14.6%
Cc1cccc(C)c1NC(=O)C1(NC(=O)C2CCC(=O)N2)CCCCC1 (centres undefined)	-0.4%	-0.3	-4.5	1.1	-0.1	3.1	18.5%
CCN(CC)c1nc2cc(OC)ccc2cc1C#N	4.1%	0.8	91.2	/	-14.3	-5.1	-5.5%
N#Cc1cccc(NC(=O)CSc2ccc3c4c(cccc24)C(=O)c2ccccc2-3)c1	2.5%	-2.1	3.1	5.5	10.9	-7.7	11.4%
Cc1ccc(-n2cnc(=O)c3cccnc32)cc1	-0.3%	0.6	2.8	4.8	-4.7	7.9	4.5%
Cc1ccc(S(=O)(=O)NCC(=O)OCc2ccccc2Br)cc1	-0.7%	7.4	2.8	-4.2	-2.0	-5.4	1.0%
Cc1ccccc1NS(=O)(=O)c1nnc(NC(=O)c2ccc(Cl)cc2)s1	0.9%&2.8%	-0.2	-11.5	-0.8	0.7	15.4	26.7%
Cc1ccc(CCNC(=O)c2ccc(CS(=O)(=O)Cc3ccccc3F)o2)cc1	1.5%	-1.1	8.5	9.3	-6.4	-10.1	-4.5%
Cc1noc(C)c1COc1ccccc1C(=O)NCc1ccccc1Cl	-1.1%	-6.2	6.1	4.7	-0.2	0.3	/
COc1ccccc1NS(=O)(=O)c1cc(NC(=O)c2ccc(Cl)nc2)ccc1Cl	?	?	?	-26.8	?	-4.9	-15.5%
Cc1[nH]c(C)c(S(=O)(=O)NCc2ccc(OC(C)C)cc2)c1C(=O)N1CCCC1	-1.2%	-3.6	4.2	-11.6	-11.7	0.8	-3.9%
C=CCC(=O)NC1CC(C)(C)Cc2c1cnn2-c1ccccc1C (centres undefined)	1.9%	2.6	3.2	4.1	-4.1	-2.2	20.8%
Cc1ccccc1NC(=O)CS(=O)(=O)c1cn(CC(=O)N2CCOCC2)c2ccccc12	-0.2%	-0.7	4.9	3.6	-2.4	-4.3	11.8%
CCn1c(=O)c2c3c(sc2n2cnnc12)CCC3	0.5%	0.6	-9.3	-7.5	-3.2	9.2	2.4%
COc1ccc(CCNC(=O)CN2CCN(Cc3ccc(F)cc3)C2=O)cc1OC	-0.4%	1.7	-1.6	2.8	-0.3	5.7	-7.4%
O=C(CCNc1n[nH]c(=O)[nH]c1=O)N1CCOCC1	-3.5%	-4.6	3.3	6.7	-3.8	4.7	12.8%
Cc1ccc(NC(=O)c2cnc(N3CCN(c4ccccn4)CC3)c3ccccc23)c(Br)c1	2.2%	?	-16.0	-6.7	11.5	5.8	-14.6%
COc1cc(CCC(=O)NCc2ccc(Cl)cc2)cc(OC)c1OC	0.3%	7.6	0.9	/	-1.1	-14.4	19.3%
Cc1cc(Cl)c(S(=O)(=O)NC2CCCC2)cc1OCC(N)=O	-0.6%	-5.5	4.6	0.9	4.7	9.4	7.9%
COc1ccccc1C(=O)NCC(c1cccnc1)N(C)C (centres undefined)	18.3%[38.3 µM]	-0.7	2.7	0.7	-14.4	4.0	4.6%
CCCCC(=O)Nc1nc(C)c(C(C)=O)s1	2.9%	-1.9	23.2	0.0	-5.5	-6.2	13.6%
Cc1c(-c2ccccc2)cnc2c(C)cccc12	15.2%	-1.9	27.8	28.2	-3.4	/	/
COCCN1C(=O)c2cc(C(=O)Nc3ccc(C)c(F)c3)ccc2C1Nc1ccc(C)c(F)c1 (centres undefined)	6.8%	-5.2	10.4	0.3	-3.8	28.2	5.4%
COc1ccc(NC(=S)N(CCc2c(C)[nH]c3ccccc23)Cc2ccco2)cc1	5.0%	-2.1	-18.4	-12.7	-4.4	12.1	10.2%
CCOC(=O)CNC(=O)C1COc2ccccc2O1 (centres undefined)	0.9%	-12.5	-3.6	-3.9	-6.4	-28.0	5.9%
CS(=O)(=O)c1ccc2nc(NC(=O)C3CC(=O)N(c4ccccc4)C3)sc2c1 (centres undefined)	-2.4%	-1.5	-1.3	-3.9	-4.0	7.6	-5.1%
Cc1cc(NC(=O)Cn2ccsc2=N)c([N+](=O)[O-])cc1C	-1.8%	-7.2	6.9	-16.6	6.9	9.4	-1.7%

By substructure: the entries above containing a cyano group (2)
SMILES	PINK1 expr mod	D2 agonist	Six1-Eya2 blk	CtBP-E1A blk	D2 potentiator	TRPV1 potentiator	Sfp PPTase inh
CCN(CC)c1nc2cc(OC)ccc2cc1C#N	4.1%	0.8	91.2	/	-14.3	-5.1	-5.5%
N#Cc1cccc(NC(=O)CSc2ccc3c4c(cccc24)C(=O)c2ccccc2-3)c1	2.5%	-2.1	3.1	5.5	10.9	-7.7	11.4%

Compounds as they come; about 3.7% have a hit in one of these screens.
